RGS16-Gao: modulators of RGS16 binding to Galphao, primary screen, biochemical, human proteins, multiplexed bead flow cytometry | binding response (% of control), % at 10 µM | Regulator of G-protein signaling 16 (Homo sapiens) + Guanine nucleotide-binding protein … | bead-based flow cytometry RGS16-Galphao binding, fluorescence; actives lie on both sides | AID 1441, 2008 | hit rate 0.38% among 220,000;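 active = below 25% or above 175%, edge rows of some plates excepted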;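 also: Galphao activated by GDP with aluminum fluoride before binding; 100% = wells without compound and 0% = beads without RGS; some results beyond the cut were filed as inactive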
Insulin prom inh: inhibitors of insulin promoter-driven GFP, primary screen, imaging, TRM-6 cells (human fetal islet line), eGFP reporter, cell count; reporter expression induced with tamoxifen; inhibition, % at 2 µM; hit rate 0.9% among 130,000;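 active = inhibition above the mean plus 3 SD, with well images judged a real hit on visual review, cut at about 60% in these data, passing the limit was not always enough; inconclusive = inhibition over the cutoff but images rejected on review; inactive = inhibition not above the cutoff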
HSV replic up: enhancers of HSV replication in host cells, fold increase, host cell viability | HSV replication augmentation in cells | maximum fold increase | hit rate 0.005% among 220,000 | AID 1956, 2009;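 active = peak rise of 1.5-fold or more in the series; inconclusive = self-fluorescent or not available for retest; tested in PC3 cells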;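 also: first round at 10 µM; read as green reporter fluorescence; hits show the peak of a series up to 25 µM; 1 = signal of infected wells without compound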
PKD1 inh: inhibitors of human PKD1 kinase, biochemical, fluorescence polarization | Serine/threonine-protein kinase D1 (Homo sapiens), Q15139 | PKD1 kinase fluorescence polarization assay | inhibition, %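 (about 10 µM by stock and volumes)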 | hit rate 0.056% among 200,000;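 active = inhibition of 50% or more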;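 also: controls were vehicle for no effect and a reference inhibitor for full effect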
Target sequence (Q15139 whole entry, looked up): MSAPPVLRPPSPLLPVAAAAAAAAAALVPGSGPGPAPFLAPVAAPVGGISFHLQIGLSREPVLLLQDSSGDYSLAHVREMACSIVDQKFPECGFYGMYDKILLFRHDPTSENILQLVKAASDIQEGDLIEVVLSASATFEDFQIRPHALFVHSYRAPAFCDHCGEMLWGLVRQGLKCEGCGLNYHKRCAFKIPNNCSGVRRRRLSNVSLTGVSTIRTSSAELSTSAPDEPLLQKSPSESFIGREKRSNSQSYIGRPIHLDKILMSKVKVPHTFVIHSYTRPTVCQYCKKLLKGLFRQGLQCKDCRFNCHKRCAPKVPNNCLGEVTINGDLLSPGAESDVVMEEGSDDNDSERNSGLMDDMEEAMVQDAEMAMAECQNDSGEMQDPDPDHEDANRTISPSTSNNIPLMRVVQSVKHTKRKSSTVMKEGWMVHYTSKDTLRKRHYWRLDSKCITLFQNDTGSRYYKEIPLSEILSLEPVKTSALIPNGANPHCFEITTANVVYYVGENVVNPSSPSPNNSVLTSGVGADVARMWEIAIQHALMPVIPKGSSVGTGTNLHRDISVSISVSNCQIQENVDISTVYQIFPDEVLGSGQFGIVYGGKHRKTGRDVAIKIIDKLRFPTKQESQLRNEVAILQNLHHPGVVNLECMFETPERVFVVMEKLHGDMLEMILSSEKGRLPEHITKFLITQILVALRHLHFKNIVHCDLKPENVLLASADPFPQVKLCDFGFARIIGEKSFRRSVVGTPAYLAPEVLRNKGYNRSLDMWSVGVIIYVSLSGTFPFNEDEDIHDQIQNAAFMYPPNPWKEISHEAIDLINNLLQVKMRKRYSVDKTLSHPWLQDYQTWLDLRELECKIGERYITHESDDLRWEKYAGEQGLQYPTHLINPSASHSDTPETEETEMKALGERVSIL
GALR2 ag: GALR2 receptor agonists, primary screen, cell-based. hit rate 0.48% among 140,000. GALR2-expressing cells, agonist activation read-out. activation, %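 (tested at 5 µM)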;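 active = above mean plus 3 SD of all compounds, about 5% in these data, not always enough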;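 also: 0% = vehicle buffer wells and 100% = reference agonist at full effect; tested in CHO reporter cells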
Insulin prom inh cell count: recorded beside Insulin prom inh, whose call it bears; normalized cell count, %; measured here: cell count, toxicity; reference of the scale not given here;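 cells exposed to compound for 48 h; stained nuclei by imaging scaled within each plate; lower means fewer cells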
HSV replic up primary fold: further read-out of HSV replic up, marked with its call; fold increase; compound at 10 µM; measured here: primary screen fold increase 10 uM; tested in PC3 cells;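 GFP signal in the first replicate; 1 = infected wells without compound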
Numbers without * were called inactive; i = inactive; u = inconclusive; x = not tested or not shown.

SMILES	RGS16-Gao	Insulin prom inh	Insulin prom inh cell count	HSV replic up	HSV replic up primary fold	PKD1 inh	GALR2 ag
Cc1cccc(OCCNc2cc(N3CCN(C)CC3)ccc2[N+](=O)[O-])c1	101	3	117	i	0.81	1	-0.9
O=C(NCCCn1ccnc1)c1ccc(N2CCCCC2)c([N+](=O)[O-])c1	107	x	x	i	0.82	3	x
Cc1cc(C(=O)O)ccc1-n1c(C)cc(C=C2C(=O)c3ccccc3C2=O)c1C	97	x	x	i	1.2	2	x
Cc1nnc(N2C(=O)c3oc4ccccc4c(=O)c3C2c2ccco2)s1 (configuration not stated)	98	20	132	i	1	-2	-1.3
O=C(C1CC1)N1CCN=C1SCc1ccc(F)cc1	104	x	x	i	1.1	-9	-2.3
Cn1c(SCC(N)=O)nnc1C1CCN(S(=O)(=O)c2ccccc2C(F)(F)F)CC1	106	12	112	i	0.96	-11	-0.5
O=C(N/N=C/c1ccccn1)c1[nH]c2ccc([N+](=O)[O-])cc2c1-c1ccccc1	100	x	x	i	0.83	-2	x
Cc1nnc(NC(=O)Cn2c(=O)sc3ccccc32)s1	77	x	x	i	0.91	2	-2.3
Nc1ncnc(SCc2c(F)cccc2Cl)n1	102	x	x	i	1.1	x	x
CCOC(=O)c1ccc(NC(=O)Nc2ccc(OC)c(OC)c2)cc1	100	67	131	i	0.93	0	-0.9
Cn1c(=O)c2c(nc(N3CCNCC3)n2Cc2ccccc2Cl)n(C)c1=O	125	36	80	i	0.98	-4	x
CCC(=O)Nc1ccc2oc(-c3cccc(C)c3)nc2c1	103	-39	155	i	0.63	-5	-1.5
Cc1onc(-c2c(Cl)cccc2Cl)c1COC(=O)c1ccc(Cl)cc1[N+](=O)[O-]	99	x	x	i	1.1	x	x
O=S(=O)(/N=C(/Sc1ccccc1)c1ccccc1)c1ccccc1	100	21	85	i	0.97	3	-1.3
CCN(CC)C(=O)N1CCN(C(=O)N(CC)CC)CC1	107	x	x	i	0.84	-9	x
O=C(NCC1CCCO1)C1CCC(N2C(=O)c3ccccc3C2=O)CC1 (configuration not stated)	101	x	x	i	1.1	-15	-3.8
COC(=O)c1ccc(CS(=O)(=O)c2ccc(C)cc2)cc1	99	-33	54	i	0.78	-1	-0.2
CC1(C)CC(C)(c2ccc(O)cc2O)N(c2cccc(Cl)c2)C(=S)N1 (configuration not stated)	102	18	144	i	1.3	-5	-3.7
CC(=O)c1cccc(N=c2scc(-c3ccc(S(=O)(=O)N4CCOCC4)cc3)n2CCO)c1	67	x	x	i	1	-9	-1.2
CCC(=O)Nc1ccc(Cl)c(NC(=S)NC(C)=O)c1	101	x	x	i	1	3	x
CCn1ccnc1[C@@H]1C[C@H]2CN(c3ccccc3OC)C(=O)[C@]23CCCN13	103	x	x	i	0.96	-7	x
CCc1ccccc1NC(=S)NCc1ccc2c(c1)OCO2	104	x	x	i	0.96	-10	-1.3
CCCCNC(=S)N(C)/N=C/c1c(F)cccc1F	96	-37	59	i	0.89	-4	-1.3
Cc1ccc(C2=C/C(=C\c3cccnc3)C(=O)O2)cc1	102	10	112	i	1	-8	2.3
CC(C)(C)NC(=O)CN(C(=O)CS(=O)CC(=O)Nc1ccc(F)cc1)c1cccc(F)c1 (configuration not stated)	101	x	x	i	0.93	-2	x
NCC(O)CN(c1ccccc1)c1ccccc1 (configuration not stated)	104	-8	94	i	0.85	-5	x
Cc1cccc(NC(=S)/N=C(\N)Nc2nc(C)c3ccc(C)cc3n2)c1	110	-4	105	i	0.8	3	-1.4
CC(C)[C@H]1CC[C@@H](C)C(C(=O)c2ccccc2)C1=O (some centres not stated)	101	-3	120	i	0.94	-4	0.8
c1ccc2c(c1)oc1c(NCCCn3ccnc3)ncnc12	100	21	77	i	0.99	6	0.1
CCOC(=O)Cc1c(C)nc2c(-c3ccccc3OC)c(C)nn2c1C	106	14	186	i	0.92	-4	-3.1
c1ccc(-c2nnc3n2CCCC3)cc1	104	x	x	i	0.99	-9	-2.0
CCn1cc(C2=NC(C)CO2)c2ccccc21 (configuration not stated)	105	84*	221*	i	0.98	-5	-0.9
CCN1c2ccccc2-c2nc3ccccc3n2C1c1ccncc1 (configuration not stated)	99	x	x	i	0.93	-5	-0.9
O=C(c1cn(-c2ccccc2)nc1-c1ccncc1)n1nnc2ccccc21	x	-69	89	i	0.97	0	-0.8
NC(CSC12CC3CC(CC(C3)C1)C2)C(=O)O (configuration not stated)	109	-6	154	i	0.75	2	0.8
CCOC(=O)C1CCCN(C(=O)c2cn(CC(C)C)c(=O)c3cc(OC)c(OC)cc23)C1 (configuration not stated)	105	-8	175	i	0.95	-6	-0.2
COc1ccc(S(=O)(=O)Cc2ccc(C(=O)N3CCN(c4cccc(C)c4)C(C)C3)o2)cc1 (configuration not stated)	99	x	x	i	0.66	-3	-1.3
CC1=C/C(=C/N(C)c2ccccc2)C(=O)S1	91	-17	298	i	1.1	-5	0.8
COCCNC(=O)Cn1cc2c(n1)CCCCC2	102	14	149	i	0.8	-9	-1.0
O=C(Nc1cccc(S(=O)(=O)NC2=NCCC2)c1)C1CCC1	107	x	x	i	0.98	-5	x
O=C(NCc1ccccc1)c1ccc(Oc2ccc(C(=O)NCc3ccccc3)cc2)cc1	101	42	121	i	0.78	6	-3.0
COc1ccc(OC)c(C2=NOC(C(=O)N3CCN(c4ccccc4)CC3)C2)c1 (configuration not stated)	101	x	x	i	0.99	-13	-1.8
CCOc1ccc(CN(C)CCc2ccccn2)cc1	100	x	x	i	0.89	0	x
CSc1cccc(NC(=O)C(C)NS(=O)(=O)c2ccc(F)cc2)c1 (configuration not stated)	104	-21	128	i	0.93	1	-0.4
COc1cc(/C=N/N2C(=O)c3ccccc3C2=O)ccc1O	35	-47	45	i	0.95	2	1.9
O=S(=O)(/C=C/c1ccccc1)Nc1ccc2c(c1)OCO2	104	33	106	i	0.93	-10	-4.8
CCCn1c(SCC(=O)NC(=O)Nc2ccc(C)cc2C)n[nH]c1=O	105	9	74	i	0.9	-1	-1.3
CC1Cc2ccccc2N1C(=O)CSc1nc2c(c(=O)n(C)c(=O)n2C)n1Cc1ccccc1 (configuration not stated)	106	x	x	i	0.73	-5	0.0
c1ccc2c(Cn3nnc4ccccc43)cccc2c1	108	28	98	i	0.76	-1	-3.1
Clc1ccc(-c2nnnn2-c2ccc(Cl)cc2)cc1	107	x	x	i	1	x	x

(further entries)
SMILES	RGS16-Gao	Insulin prom inh	Insulin prom inh cell count	HSV replic up	HSV replic up primary fold	PKD1 inh	GALR2 ag
Cc1nc(SCC(=O)Nc2cccnc2Cl)nc(C)c1C	95	x	x	i	0.87	-4	x
CCOC(=O)CNC(=O)CSc1nnc(-c2ccccc2)n1Cc1ccco1	113	6	91	i	0.98	8	-1.7
Fc1ccc(CNc2nc3ccccc3n3nnnc23)cc1	102	x	x	i	1	11	-6.1
CCOC(=O)CN(C(=O)c1ccccc1)c1ccccc1C	101	-32	134	i	0.98	5	-1.8
CCC(Cc1ccccc1)NC(=O)C1CCN(S(=O)(=O)c2c(C)noc2C)CC1 (configuration not stated)	117	-150	136	i	0.95	0	-1.4
CC(NC(=O)/C=C/c1ccco1)c1nc2ccccc2n1Cc1c(Cl)cccc1Cl (configuration not stated)	107	x	x	x	x	-11	-0.8
Nc1nc(Nc2cccc(Cl)c2)nc(NCc2ccco2)c1[N+](=O)[O-]	100	x	x	i	0.88	x	x
Cc1cc(C(=O)OCC(=O)N2CC(C)OC(C)C2)ccc1[N+](=O)[O-] (configuration not stated)	109	42	92	i	1	-4	x
O=C(O)c1ccc2c(=O)n(-c3ccc(F)cc3)c(=S)[nH]c2c1	98	x	x	i	0.94	x	x
CCCc1nnc(NC(=O)c2ccc([N+](=O)[O-])cc2)s1	90	-30	46	i	0.99	-4	-0.8

Entries of single compounds, quoted from the list. Values in the order: RGS16-Gao	Insulin prom inh	Insulin prom inh cell count	HSV replic up	HSV replic up primary fold	PKD1 inh	GALR2 ag
Listed for `Fc1ccc(CNc2nc3ccccc3n3nnnc23)cc1` → 102	x	x	i	1	11	-6.1
Listed for `CCCc1nnc(NC(=O)c2ccc([N+](=O)[O-])cc2)s1` → 90	-30	46	i	0.99	-4	-0.8

Next structures follow.
SMILES	RGS16-Gao	Insulin prom inh	Insulin prom inh cell count	HSV replic up	HSV replic up primary fold	PKD1 inh	GALR2 ag
CCCOC(=O)c1ccc(Cl)c(NC(=O)c2cccnc2)c1	106	x	x	i	0.66	7	x
Cc1ccc(N2C(=O)CS(=O)(=O)CC2=O)cc1	103	x	x	i	0.92	8	x
O=C(COc1ccc(Cl)cc1Cl)N1CCCC1	98	3	139	i	1.1	0	-3.4
Cc1cccc(C(C)Nc2ccc([N+](=O)[O-])cn2)c1 (configuration not stated)	106	44	39	i	0.89	-8	-0.4
O=C(NCCF)[C@H]1C[C@@H]1[C@H](NP(=O)(c1ccccc1)c1ccccc1)c1ccccc1	56	-15	111	i	0.91	5	-1.3
COC(=O)c1ccc(NC(=O)CN2CCN(c3cccc(Cl)c3)CC2)cc1	110	x	x	i	0.86	6	-0.8
CCOC(=O)C1(c2nc(N)cs2)COC(=O)C1 (configuration not stated)	101	x	x	i	0.85	-11	0.0
CCCCOc1ccc(NC(=O)C(=O)NCCCn2ccnc2)cc1	95	59	55	i	0.97	-13	-2.8
CC1CC1c1ccc(/C=C(\C#N)C(=O)Nc2ccccc2Cl)o1 (configuration not stated)	111	x	x	x	x	-1	1.1
O=C(c1cc(S(=O)(=O)N2CCOCC2)c(Cl)cc1Cl)N1CCCCC1	106	x	x	i	0.96	-1	-1.0
Cc1cc(C)nc(N2CCC(C(=O)NCc3cccs3)CC2)n1	103	x	x	i	1	-4	-1.7
COc1cc(N=Nc2cccc(S(N)(=O)=O)c2)c2ccccc2c1N	99	x	x	u	x	x	x
CC(C)COc1cccc(C(=O)NC(=S)Nc2cccc(NC(=O)c3ccccc3Cl)c2)c1	111	0	98	i	1.1	7	-1.2
CCCCn1c(C)cc(/C=C(\C#N)C(=O)O)c1C	100	61	95	i	1.2	-4	-3.4
CCc1nn(C(C)C(=O)NCCc2ccc(OC)c(OC)c2)c(=O)c2cc3occc3n12 (configuration not stated)	117	-37	112	i	1	-12	3.6
O=C(Nc1ccc(Cc2ccc(NC(=O)C3CC3)cc2)cc1)C1CC1	122	-109	41	i	0.82	-6	x
CSc1n[nH]c(/N=C/c2oc(O)c3ccccc23)n1	100	-17	119	i	1.1	-2	x
O=C(Nc1cc(C(F)(F)F)cc(C(F)(F)F)c1)Nc1cnn(-c2ccc([N+](=O)[O-])cc2)c1C(F)(F)F	96	x	x	i	0.69	x	x
CN(C)c1ccc(/C=N/NC(=O)CCc2nc3ccccc3[nH]2)cc1	101	x	x	i	1.1	x	x
CC(=O)Nc1cc(S(=O)(=O)Nc2cccc(C)c2)c(C)cc1C	102	-7	93	i	0.84	-7	-0.9
CSc1nnc(Cc2cc(=O)[nH]c(=O)[nH]2)n1-c1cc(C)ccc1C	96	x	x	i	0.85	-16	-0.7

Sorted by heavy-atom count (falling): some entries from above
SMILES	RGS16-Gao	Insulin prom inh	Insulin prom inh cell count	HSV replic up	HSV replic up primary fold	PKD1 inh	GALR2 ag
O=C(Nc1cc(C(F)(F)F)cc(C(F)(F)F)c1)Nc1cnn(-c2ccc([N+](=O)[O-])cc2)c1C(F)(F)F	96	x	x	i	0.69	x	x
CC(C)COc1cccc(C(=O)NC(=S)Nc2cccc(NC(=O)c3ccccc3Cl)c2)c1	111	0	98	i	1.1	7	-1.2
CCc1nn(C(C)C(=O)NCCc2ccc(OC)c(OC)c2)c(=O)c2cc3occc3n12 (configuration not stated)	117	-37	112	i	1	-12	3.6
COC(=O)c1ccc(NC(=O)CN2CCN(c3cccc(Cl)c3)CC2)cc1	110	x	x	i	0.86	6	-0.8
CN(C)c1ccc(/C=N/NC(=O)CCc2nc3ccccc3[nH]2)cc1	101	x	x	i	1.1	x	x
CSc1nnc(Cc2cc(=O)[nH]c(=O)[nH]2)n1-c1cc(C)ccc1C	96	x	x	i	0.85	-16	-0.7
Cc1cc(C)nc(N2CCC(C(=O)NCc3cccs3)CC2)n1	103	x	x	i	1	-4	-1.7
CSc1n[nH]c(/N=C/c2oc(O)c3ccccc23)n1	100	-17	119	i	1.1	-2	x
CCCCn1c(C)cc(/C=C(\C#N)C(=O)O)c1C	100	61	95	i	1.2	-4	-3.4
CCOC(=O)C1(c2nc(N)cs2)COC(=O)C1 (configuration not stated)	101	x	x	i	0.85	-11	0.0
